gsp ag: qHTS for Agonist of gsp, the Etiologic Mutation Responsible for Fibrous Dysplasia/McCune-Albright Syndrome: qHTS; gsp mutant cells, cAMP HTRF, 30 min; control for the full effect not named in the record; 340,000 tested, 0.13% active; Potency, µM (titrated, usually from 76.9 µM), inactives show at the top dose activation (cAMP increase), actives largely listed as activators; active = well fitted activation curve with a large enough effect; inconclusive = small, poorly fitted or top-dose-only effect, or another doubt; inactive = no such curve, though single readings can be large or run the other way; cell line not stated here;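 also: phosphodiesterase inhibitor Ro 20-1724 added with compounds to block cAMP breakdown; potency is read from the fitted curve at half-maximal effect; nearly all actives have a fitted effect of over 60% in size; about a fifth of the inactives were tested at one dose only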
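Cells stably selected in G418 were plated at 2000/well, grown 16-24 hr, then given compounds in DMSO with the PDE inhibitor […] (300 uM solution added) for 30 min at 37C; cAMP was read by HTRF.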
TRPV1 PAM: HTS Assay for Compounds that Act as Potentiators of the Vanilloid Receptor 1; 320,000 tested, 0.02% active; AID 540277, 2011; Transient receptor potential cation channel subfamily V member 1 (Homo sapiens), Q8NER1; TRPV1-expressing cells, Fluo-8 calcium influx, capsaicin EC20 potentiation; host cell line not named in the record; control for the full effect not named in the record; potentiation, % at 8.33 µM; active means potentiation above 80%; inconclusive means 30% to 80%; inactive means below 30%; also: 0% is about no effect
Target sequence (Q8NER1 whole entry, looked up): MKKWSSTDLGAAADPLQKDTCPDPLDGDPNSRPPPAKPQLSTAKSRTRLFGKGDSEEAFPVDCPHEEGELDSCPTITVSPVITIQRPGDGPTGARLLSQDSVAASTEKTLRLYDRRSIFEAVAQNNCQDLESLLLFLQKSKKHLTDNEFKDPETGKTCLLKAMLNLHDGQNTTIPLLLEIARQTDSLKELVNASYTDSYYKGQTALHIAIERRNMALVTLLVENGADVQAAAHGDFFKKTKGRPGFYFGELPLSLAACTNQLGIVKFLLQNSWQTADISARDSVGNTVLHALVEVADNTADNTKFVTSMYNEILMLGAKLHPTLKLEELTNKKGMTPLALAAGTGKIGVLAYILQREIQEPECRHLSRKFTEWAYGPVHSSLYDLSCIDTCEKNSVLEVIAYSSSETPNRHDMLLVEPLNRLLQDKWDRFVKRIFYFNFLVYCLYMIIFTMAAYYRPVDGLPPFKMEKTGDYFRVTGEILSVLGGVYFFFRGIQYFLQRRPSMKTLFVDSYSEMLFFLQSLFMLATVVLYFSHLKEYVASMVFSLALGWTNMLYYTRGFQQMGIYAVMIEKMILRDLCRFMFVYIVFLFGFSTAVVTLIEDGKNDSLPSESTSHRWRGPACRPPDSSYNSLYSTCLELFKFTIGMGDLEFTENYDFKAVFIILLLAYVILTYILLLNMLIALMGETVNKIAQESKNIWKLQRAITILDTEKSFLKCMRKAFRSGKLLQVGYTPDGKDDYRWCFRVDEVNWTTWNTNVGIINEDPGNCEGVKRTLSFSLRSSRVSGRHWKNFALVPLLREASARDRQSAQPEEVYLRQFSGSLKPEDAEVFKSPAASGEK
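Cells expressing TRPV1 were dye-loaded with Fluo-8 and read kinetically: 10 s baseline, 3 min after compound (agonist portion), then 2 min after EC20 capsaicin (allosteric enhancer portion). Calcium-bound dye fluorescence at 480/520 nm.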
Sfp inh: qHTS Assay for Inhibitors of Bacillus subtilis Sfp phosphopantetheinyl transferase (PPTase). Biochemical Sfp PPTase activity, qHTS. Potency, µM, for the others: max response, negative = inhibition, usual class: inhibitors. 310,000 tested, 3.5% active. AID 1490, 2009; active = well fitted inhibition curve with a large enough effect; inconclusive = small, poorly fitted or top-dose-only effect, or another doubt; inactive = no such curve, though single readings can be large or run the other way;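 also: the enzyme is Sfp with the accession as filed and its product quenches rhodamine fluorescence; potency is read from the fitted curve at half-maximal effect; 0% = enzyme reaction without inhibitor and -100% = no enzyme wells; top concentration of the series not given in the record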
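Buffer: 50 mM Hepes-Na pH 7.6, 10 mM MgCl2, 0.01% Nonidet P-40, 0.01% BSA. Enzyme 15 nM, pre-exposed to compound 15 min; substrates then added and fluorescence change tracked over 30 min.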
Menin MLL FP FL: qHTS Assay for Inhibitors Targeting the Menin-MLL Interaction in MLL Related Leukemias: Competition With Fluorescein Labeled MLL-derived Peptide | Fluorescence polarization, fluorescein-MLL peptide displacement from menin | FP activity change, % at 61.4 µM | 290,000 tested, under 10 active | AID 1766, 2009; inconclusive = falling polarisation curve, or a change in total fluorescence; inactive = total fluorescence flat and polarisation flat or rising; no compound was filed as active; the % refers to the polarisation; negative = inhibition;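 also: % of control where 0% means no effect; inhibitors lower the polarisation; unlabelled MLL peptide was the positive control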
gsp antag: qHTS for Antagonists of gsp, the Etiologic Mutation Responsible for Fibrous Dysplasia/McCune-Albright Syndrome: qHTS; AID 624288, 2012; gsp-mutant cells, cAMP HTRF, 30 min; control for the full effect not named in the record; Potency, µM (top dose mostly 76.9 µM), inactives show top-dose activity change, negative = inhibition, most hits filed as inhibitors; 340,000 tested, 0.4% active; active = falling curve of any shape with a large fitted effect; inconclusive = falling curve, mostly with a smaller effect; inactive = flat or rising curve; cell line not stated here;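 also: intracellular cAMP measured with PDE inhibitor Ro 20-1724 present during compound exposure; potency is read from the fitted curve at half-maximal effect; % is scaled to controls: 0 for no effect and ±100 for the full control effect; nearly all actives have a fitted effect of over 65% in size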
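HTRF cAMP read-out (cAMP-d2 plus anti-cAMP antibody-K in lysis buffer, 30 min RT). Before lysis, cells are exposed to compounds with […] for 30 min at 37C in DPBS containing Ca/Mg, BSA and Tween 20.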
CtBP-E1A inh: qHTS Assay for Inhibitors of the CtBP/E1A Interaction. AlphaScreen GST-E1A/His-CtBP binding, 1536-well; hits give low values; control for the full effect not named in the record. activity change, % (test concentration not listed). 340,000 tested, 0.49% active; in the data active means activity change below about -65%; inconclusive means about -30% to -65%; inactive means above about -30%; also: % is scaled to controls: 0 for no effect and ±100 for the full control effect; compound concentration not given in the record
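Steps: dispense buffer (Tris pH 8.0, NaCl 300 mM, TCEP 1 mM, BSA, Tween 20); add 5X protein mix (GST-E1A, His-CtBP, 125 nM each); pin 23 nL compound; 2 h at 37 °C, dark; add 5X beads (50 ug/mL); 1 h; read.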
ClpP mod: qHTS Assay for Activators of ClpP; purified B. subtilis ClpP, FRET peptide cleavage, 20 min; Potency, µM (series often up to 57.5 µM), for the others: at the top dose activity change, negative = active; 340,000 tested, 1.9% active; AID 651965, 2013; active = well fitted falling curve with a large enough effect; inconclusive = small, poorly fitted or top-dose-only effect; inactive = no such curve, though single readings can be large or run the other way; also: potency is read from the fitted curve at half-maximal effect; the source files actives as falling curves though it sought activators and does not explain the sign; nearly all actives have a fitted effect of over 65% in size; many hits overshoot -100%
Target sequence (P80244 whole entry, looked up): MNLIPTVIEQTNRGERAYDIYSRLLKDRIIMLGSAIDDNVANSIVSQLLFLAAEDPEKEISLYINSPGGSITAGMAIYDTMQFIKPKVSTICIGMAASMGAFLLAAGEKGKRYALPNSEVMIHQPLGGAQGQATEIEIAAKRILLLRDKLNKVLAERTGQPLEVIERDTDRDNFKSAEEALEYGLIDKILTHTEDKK
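ClpP 10 microg/mL final, pH 8 Tris/KCl buffer with BSA, glycerol, Tween-20; compound pinned in; FRET-FV substrate; RT 20 min; Ex320/Em430; ΔFRET vs ADEP 5.8 microM, DMSO, no enzyme.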
An asterisk follows results filed as active; u = inconclusive; x = no result given; & = joins results of further samples; [ ] = another dose, or the depositor's remark.

SMILES	gsp ag	TRPV1 PAM	Sfp inh	Menin MLL FP FL	gsp antag	CtBP-E1A inh	ClpP mod
COc1ccc(CN(C)C(=O)c2ccc(NC(=O)CC3SC(N4CCCC4)=NC3=O)cc2)c(OC)c1OC (configuration not stated)	3%	-11	x	x	4%	8	0.8%
COc1cccc(CNC(=O)Cc2csc(Nc3nc(=S)[nH]c4ccccc34)n2)c1	20%[15.4 µM]	22	-9%	7.9	-11%	-10	x
CC(C)(C)c1cccc(/C=N/O)c1O	-26%	10	16%	-0.3	-2%	-2	-1.4%
COc1ccc(CCNC(=O)c2nc(-c3cccs3)no2)cc1OC	-7%[15.4 µM]	-8	7%	-0.6	-25%	11	x
CC1CC(C)CN(CC(=O)Nc2ccc3c(c2)OCCO3)C1 (configuration not stated)	-3%	11	-21%	0.0	3%	-10	-1.8%
COc1ccc2c(c1)cc1n2CCN2CCCN=C12	7%	4	2%	-0.6	-3%	13	-11%
COc1ccc(-c2noc(COc3ccc4c(c3)OCO4)n2)cc1	13%	8	10µM*	5.5	5%	5	2.6%
Cc1ccc(-n2c(C)cc(C=C3C(=O)N(C)C(=O)N(C)C3=O)c2C)cc1	2%[15.4 µM]	x	x	x	12%	-1	-2.0%
O=[N+]([O-])c1cccc(N/N=C/c2ccc(N3CCOCC3)cc2)c1	-3%	-21	0%	2.2	u	-26	x
CCc1nnc(NC(=O)CSc2nnc(CNc3cccc(C)c3)n2-c2ccccc2)s1	-9%	x	7%	0.8	u	-3	3.4%
O=C(CCNC(=O)c1ccc(Cl)cc1)Nc1ccc(Cl)cc1F	-7%[15.4 µM]	-4	23%	4.1	11%	0	x
COc1ccc(NC(=O)CSc2nc3nc(-c4cccs4)cc(C(F)(F)F)c3c(=O)[nH]2)c(OC)c1	1%	8	-20%	8.9	-7%	4	u
O=C(Nc1cccnc1)c1cc2c(ccc3ccccc32)o1	-17%	-19	-11%	-0.2	5%	-9	25µM*
CC(C)c1nc2oc3c(NCC4CCCO4)ncnc3c2c2c1CCC2 (configuration not stated)	6%	-6	8%	2.1	u	2	u
NNC(=O)Cc1cn(-c2ncc(C(F)(F)F)cc2Cl)c2ccccc12	-6%	2	9%	2.3	7%	9	-2.2%
C[C@@H]1CN([C@@H](C)CO)C(=O)c2cc(NC(=O)C3CC3)ccc2O[C@@H]1CN(C)Cc1ccc(Cl)c(Cl)c1	x	x	x	x	-22%	-6	-4.2%
Cc1ccc(-c2cc(C(=O)Nc3ccc(S(=O)(=O)Nc4onc(C)c4C)cc3)[nH]n2)c(O)c1	-6%[15.4 µM]	-3	23%	1.2	-2%	-8	x
C#CCOc1ccc(C2C3=C(COC3=O)Nc3cc4c(cc32)OCO4)cc1OC (configuration not stated)	12%[15.4 µM]	4	u	6.8	11%	-8	x
COc1ccc(CC(CN)c2ccccc2)cc1 (configuration not stated)	-19%	2	10%	-0.1	u	0	1.7%
CCCn1c(Oc2ccccc2)nc2c1c(=O)n(C)c(=O)n2C	4%	9	-10%	-5.5	-2%	x	-3.3%
Cc1ccc2c(CC(=O)OCn3nnc4ccccc4c3=O)coc2c1	u	-3	-2%	3.2	17%	6	1.2%
Cc1cccc2c(N=Nc3ccccc3)c(O)[nH]c12	8%[15.4 µM]	10	7%	u	0%	-16	-2.3%
O=C(c1ccc2c(c1)OCO2)C1CCCN(Cc2ccccc2OC(F)F)C1 (configuration not stated)	23%	2	-3%	-0.5	0%	-5	-2.5%
Cn1cnc(C(=O)NCc2ccc(CNC(=O)OC(C)(C)C)cc2)c1C(=O)NCc1ccc(CNC(=O)OC(C)(C)C)cc1	-3%	x	x	x	-13%	-3	1.9%
Cc1cccc([C@@H]2[C@@H]3C(=O)N(C)C(=O)[C@@H]3[C@@H]3C(=O)Nc4ccccc4C(=O)N23)c1	u	-12	23%	1.0	-6%	x	-8.7%
(more compounds)
SMILES	gsp ag	TRPV1 PAM	Sfp inh	Menin MLL FP FL	gsp antag	CtBP-E1A inh	ClpP mod
Cc1ccc(NC2=Nc3ccccc3CC2)cc1	15%	21	4%	-2.0	6%	1	1.3%
O=C(Cc1ccc(Cl)cc1)N1CCC2(CC1)NCCc1[nH]cnc12	-6%	1	-1%	x	5%	x	0.1%
COc1ccc(CN(C(=O)CNC(=O)c2ccco2)C(C(=O)NC2CCCC2)c2ccco2)cc1 (configuration not stated)	-3%	-11	3%	11	3%	0	0.2%
COc1ccccc1N(CC(=O)Nc1cccc(C(F)(F)F)c1)S(C)(=O)=O	-4%	4	18%	0.2	-13%	8	x
O=C(CSCc1cnn(-c2ccccc2)c1-n1cccc1)N1CCN(Cc2ccccc2)CC1	1%	1	-5%	3.9	u	-15	0.8%
Cc1cc(C)c(S(=O)(=O)Nc2cc(SCC(=O)O)c(O)c3ccccc23)cc1C	-2%	9	8.9µM*	-26	-28%	-20	0.4%
COc1ccc(C2C(C(=O)c3sc(C)nc3C)=C(O)C(=O)N2CCN2CCOCC2)cc1 (configuration not stated)	-3%	u	-14%	-1.3	1%	10	0.6%
Cc1cc([N+](=O)[O-])ccc1P(=O)(O)c1ccc([N+](=O)[O-])cc1C	u	x	x	x	9%	9	1.3%
Cc1cc(C)c(S(=O)(=O)N2CCCCC2CCNC(=O)C(=O)NCCN2CCOCC2)c(C)c1 (configuration not stated)	-1%	3	x	x	2%	11	0.6%
C=CCSc1nc2c(sc3nc(C)cc(C)c32)c(=O)[nH]1	2%	x	-23%	5.1	-9%	-11	u
Cc1cc2c(cn1)C(CCC#N)(CCC#N)c1ccccc1-2	-39%[inhibitor]	7	6%	1.4	16%	-6	x
Cc1cc(NC(=O)c2ccc(C(C)(C)C)cc2)no1	u	x	x	x	-2%	11	x
COC(=O)c1ccc(C(=O)OC)c(NC(=O)COC(=O)c2ccccc2OC)c1	-14%[15.4 µM]	16	-17%	1.9	12%	-3	1.0%
COCCOC(=O)C(C#N)c1nc2ccccc2nc1N1CCN(Cc2ccccc2)CC1 (configuration not stated)	7%	23	-7%	0.9	-8%[15.4 µM]	-9	-28%
CCCCN(CC)Cc1ccc(CNC(=S)Nc2ccccc2F)o1	-13%[15.4 µM]	2	-16%	-0.7	10%	-2	x
COc1ccccc1N1C(=O)CC(c2ccccc2)CC1=O	-21%	2	x	x	5%	7	-0.7%
CN(C)CCCNC(=S)N1CCC(C(=O)c2ccc(Cl)cc2)CC1	11%	x	x	x	x	-8	-1.7%
COC(=O)C1=C(C)Nc2c(c(=O)n(C)c(=O)n2C)C1c1ccc(C)cc1 (configuration not stated)	15%[15.4 µM]	-4	-9%	-2.9	-5%	-7	-1.2%
CC1CN(C(=O)c2cc(F)c(F)cc2Cl)CC(C)O1 (configuration not stated)	u	x	x	x	-3%	4	0.0%
COc1ccc(Cc2c[nH]c(=O)[nH]c2=O)cc1	-21%	12	11%	4.3	0%	8	0.5%
NCCCC[C@@H]1NC(=O)c2cc([N+](=O)[O-])cc(I)c2SC[C@@H](C(N)=O)NC(=O)[C@H](CCC(N)=O)NC1=O	4%	6	9%	-1.5	8%	x	-3.0%
COC(=O)C1=NNC2(C)C(=O)N(c3ccc(C)cc3)C(=O)C12 (configuration not stated)	-1%	7	-1%	0.3	3%	-19	-2.1%
COCCN(CCOC)c1nc(S(=O)(=O)c2ccc(C)cc2)c(Cl)s1	-4%	-16	2%	6.9	-6%	-1	-0.4%
CN(CC(=O)Nc1cc(Cl)cc(Cl)c1)Cc1cccs1	9%[15.4 µM]	-20	4%	x	-12%	15	x
CC1CN(C(=O)COC(=O)c2cccc(NS(=O)(=O)c3ccccc3)c2)CC(C)O1 (configuration not stated)	-24%[15.4 µM]	1	x	x	8%	-7	x

Next section; it opens with the 2 that closed the last part.
SMILES	gsp ag	TRPV1 PAM	Sfp inh	Menin MLL FP FL	gsp antag	CtBP-E1A inh	ClpP mod
CN(CC(=O)Nc1cc(Cl)cc(Cl)c1)Cc1cccs1	9%[15.4 µM]	-20	4%	x	-12%	15	x
CC1CN(C(=O)COC(=O)c2cccc(NS(=O)(=O)c3ccccc3)c2)CC(C)O1 (configuration not stated)	-24%[15.4 µM]	1	x	x	8%	-7	x
CCCCCOc1ccc(NC(=O)C(=O)NCCC2=CCCCC2)cc1	1%	-14	9%	-0.9	-7%	-2	1.7%
CN1CCN(c2nc(-c3cc4ccccc4o3)cs2)CC1	-6%	7	-8%	4.2	19%	8	0.4%
O=C(c1ccc(Cl)c(S(=O)(=O)N2CCOCC2)c1)N(Cc1nnc(-c2ccccc2Cl)o1)C1CC1	13%	-4	x	x	-19%	4	22µM*
CCCCN(C)C(=O)c1cn(C)c2ccc(S(=O)(=O)N(C)C)cc2c1=O	30%	-4	16%	1.3	-6%	-1	-9.5%
COc1c2c(nc3ccccc13)OC(C(C)(O)CO)C2 (configuration not stated)	-4%	4	16%&11%	-1.3&-1.2&-0.2	2%	14	-2.0%
CC(C)NS(=O)(=O)c1ccc(NC(=S)NC(=O)c2ccc(-c3ccccc3)cc2)cc1	-44%[inhibitor]	-8	2%	7.3	-13%	-4	-0.7%
CC(C)(C)[C@@H]1COC(=O)[C@H](Cc2ccc(F)cc2)C/C=C\C[C@H](CC(=O)N(CCO)Cc2ccccc2)C(=O)N1	-4%	x	x	x	u	2	0.6%
CCN(c1ccccc1)S(=O)(=O)c1cccc(C(=O)NCC(c2ccco2)N2CCCC2)c1 (configuration not stated)	5%	5	-1%	x	5%	-8	-5.9%
Clc1ccc(-c2cn3c(n2)CCC3)cc1	-54%[inhibitor]	-11	2%	1.8	2%	-4	-0.9%
S=c1[nH]c2ncccc2o1	29%	7	-24%	4.0	10%	-1	0.5%

Two entries drawn at random from the list so far:
SMILES	gsp ag	TRPV1 PAM	Sfp inh	Menin MLL FP FL	gsp antag	CtBP-E1A inh	ClpP mod
COc1ccccc1N1C(=O)CC(c2ccccc2)CC1=O	-21%	2	x	x	5%	7	-0.7%
COc1ccc(-c2noc(COc3ccc4c(c3)OCO4)n2)cc1	13%	8	10µM*	5.5	5%	5	2.6%

From PubChem
